High-throughput results as filed in PubChem.
Menin-MLL FL inh: displaces fluorescein MLL peptide from human menin. Fluorescence polarization, fluorescein-MLL peptide displacement from menin. FP activity change, % at 61.4 µM. 290,000 tested, under 10 active; inconclusive = falling polarisation curve, or a change in total fluorescence; inactive = total fluorescence flat and polarisation flat or rising; no compound was filed as active; the % refers to the polarisation; negative = inhibition;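 also: % of control where 0% means no effect; inhibitors lower the polarisation; unlabelled MLL peptide was the positive control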
Sfp PPTase inh: inhibitors of Bacillus subtilis Sfp phosphopantetheinyl transferase; Biochemical Sfp PPTase activity, qHTS; Potency, µM, for the others: max response, negative = inhibition, most hits filed as inhibitors; 3.5% of 310,000 active; active = well fitted inhibition curve with a large enough effect; inconclusive = small, poorly fitted or top-dose-only effect, or another doubt; inactive = no such curve, though single readings can be large or run the other way;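 also: the enzyme is Sfp with the accession as filed and its product quenches rhodamine fluorescence; potency is read from the fitted curve at half-maximal effect; 0% = enzyme reaction without inhibitor and -100% = no enzyme wells; top concentration of the series not given in the record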
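Buffer: 50 mM Hepes-Na pH 7.6, 10 mM MgCl2, 0.01% Nonidet P-40, 0.01% BSA. Enzyme 15 nM, pre-exposed to compound 15 min; substrates then added and fluorescence change tracked over 30 min.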
TRPML1 blocker: inhibitors of human TRPML1 channel. Q9GZU1. TRPML1-inducible cells, Ca2+ dye fluorescence, FDSS; hits give low values; inhibition of EC80 agonist-evoked calcium signal. activity change, negative = inhibition, % (no concentration beside the values). 0.02% of 390,000 active. AID 624415; in the data active means activity change below about -50%; inconclusive means about -30% to -50%; inactive means above about -30%;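 also: stimulus is agonist 54-4 at its EC80 concentration; % is scaled to controls: 0 for no effect and ±100 for the full control effect; compound concentration not given in the record; the text of the record puts the active cut at -80%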
Target sequence (Q9GZU1 whole entry, looked up): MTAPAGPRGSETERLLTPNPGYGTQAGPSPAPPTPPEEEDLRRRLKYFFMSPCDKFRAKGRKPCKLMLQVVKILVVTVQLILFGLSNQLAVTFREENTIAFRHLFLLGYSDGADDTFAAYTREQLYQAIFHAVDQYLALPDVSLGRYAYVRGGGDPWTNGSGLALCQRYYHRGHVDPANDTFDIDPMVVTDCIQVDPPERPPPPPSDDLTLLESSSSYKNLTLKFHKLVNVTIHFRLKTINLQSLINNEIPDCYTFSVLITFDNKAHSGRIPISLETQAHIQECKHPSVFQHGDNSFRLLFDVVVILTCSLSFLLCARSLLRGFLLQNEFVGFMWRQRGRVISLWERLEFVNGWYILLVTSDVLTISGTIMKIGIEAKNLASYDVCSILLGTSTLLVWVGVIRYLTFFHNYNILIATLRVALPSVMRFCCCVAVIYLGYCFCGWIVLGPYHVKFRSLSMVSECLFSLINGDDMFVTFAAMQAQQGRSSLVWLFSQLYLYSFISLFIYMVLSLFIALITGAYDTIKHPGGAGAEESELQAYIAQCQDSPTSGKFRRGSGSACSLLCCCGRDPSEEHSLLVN
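Calcium fluorescence in TRPML1-DL cells induced overnight with Tet: a 110 s read after compound pin addition, then a 110 s antagonist read after challenge with 54-4 at 4 uM final (EC80).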
gsp ag: agonists of gsp mutant (McCune-Albright syndrome) | 0.13% of 340,000 active | AID 624287 | gsp mutant cells, cAMP HTRF, 30 min; control for the full effect not named in the record | Potency, µM (titrated, usually from 76.9 µM), inactives show at the top dose activation (cAMP increase), actives largely listed as activators; active = well fitted activation curve with a large enough effect; inconclusive = small, poorly fitted or top-dose-only effect, or another doubt; inactive = no such curve, though single readings can be large or run the other way; cell line not stated here;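 also: phosphodiesterase inhibitor Ro 20-1724 added with compounds to block cAMP breakdown; potency is read from the fitted curve at half-maximal effect; nearly all actives have a fitted effect of over 60% in size; about a fifth of the inactives were tested at one dose only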
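Cells in DMEM/10% FBS with G418 were pretreated with compounds in DMSO plus […] (300 uM stock) for 30 min at 37C. cAMP was measured by HTRF (cAMP-d2 plus anti-cAMP antibody-K) after 30 min at room temperature.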
ClpP mod: qHTS Assay for Activators of ClpP; 1.9% of 340,000 active; Potency, µM (highest dose often 57.5 µM), for the others: at the highest dose activity change, negative = active; ATP-dependent Clp protease proteolytic subunit (Bacillus subtilis (strain 168)), P80244; purified B. subtilis ClpP, FRET peptide cleavage, 20 min; active = well fitted falling curve with a large enough effect; inconclusive = small, poorly fitted or top-dose-only effect; inactive = no such curve, though single readings can be large or run the other way; also: potency is read from the fitted curve at half-maximal effect; the source files actives as falling curves though it sought activators and does not explain the sign; nearly all actives have a fitted effect of over 65% in size; many hits overshoot -100%
Target sequence (P80244 whole entry, looked up): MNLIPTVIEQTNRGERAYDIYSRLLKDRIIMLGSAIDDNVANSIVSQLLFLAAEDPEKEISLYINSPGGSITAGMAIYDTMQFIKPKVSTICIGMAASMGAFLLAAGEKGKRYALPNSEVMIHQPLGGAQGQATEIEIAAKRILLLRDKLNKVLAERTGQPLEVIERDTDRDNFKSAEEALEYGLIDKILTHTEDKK
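Purified B. subtilis ClpP, 10 microg/mL final in Tris/HCl pH8 with KCl, BSA, glycerol and Tween-20, cleaved an Abz/nitrotyrosine-quenched decapeptide. Fluorescence (ex 320, em 430) was read at 0 and 20 min at room temperature. Delta was normalized to 5.8 microM ADEP and DMSO/no-enzyme controls.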
gsp antag: antagonists of gsp mutant (McCune-Albright syndrome); gsp-mutant cells, cAMP HTRF, 30 min; control for the full effect not named in the record; Potency, µM (titrated, usually from 76.9 µM), without a hit: at the top dose activity change, negative = inhibition, hits mostly inhibitors; 0.4% of 340,000 active; active = falling curve of any shape with a large fitted effect; inconclusive = falling curve, mostly with a smaller effect; inactive = flat or rising curve; cell line not stated here;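 also: intracellular cAMP measured with PDE inhibitor Ro 20-1724 present during compound exposure; potency is read from the fitted curve at half-maximal effect; % is scaled to controls: 0 for no effect and ±100 for the full control effect; nearly all actives have a fitted effect of over 65% in size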
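Cells in G418 medium, seeded 16-24 h, 37C; buffer exchange to DPBS + 1 mM CaCl2, 0.5 mM MgCl2, 0.05% BSA; cpds in DMSO + […] (300 uM stock), 30 min 37C; HTRF cAMP detection.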
TRPV1 PAM: enhances activation of the human vanilloid receptor TRPV1. Q8NER1. TRPV1-expressing cells, Fluo-8 calcium influx, capsaicin EC20 potentiation; host cell line not named in the record; control for the full effect not named in the record. potentiation, % at 8.33 µM. 0.02% of 320,000 active. AID 540277; active means potentiation above 80%; inconclusive means 30% to 80%; inactive means below 30%; also: 0% is about no effect
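TRPV1-expressing cells were cultured overnight at 35.5C and loaded with Fluo-8 calcium dye for 40 to 90 min at room temperature. After a 10 s baseline, compound was added and calcium influx was read kinetically for 3 min (ex 480/em 520 nm).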
* = called active by the depositor; ? = inconclusive; . = no result given; [ ] = another dose, or the depositor's remark.

The opening 2 entries (preview)
SMILES | Menin-MLL FL inh | Sfp PPTase inh | TRPML1 blocker | gsp ag | ClpP mod | gsp antag | TRPV1 PAM
CCOc1ccc(NS(=O)(=O)c2cc(C(=O)NCCN3CCOCC3)ccc2C)cc1 | . | . | -11 | 10% | . | -12% | .
Cc1cccc(N(CC(=O)NC2CC2)S(=O)(=O)c2ccc(Cl)cc2)c1 | . | 13% | -11 | 8%[15.4 µM] | 0.8% | 0% | -16

Results, from the start:
SMILES | Menin-MLL FL inh | Sfp PPTase inh | TRPML1 blocker | gsp ag | ClpP mod | gsp antag | TRPV1 PAM
CCOc1ccc(NS(=O)(=O)c2cc(C(=O)NCCN3CCOCC3)ccc2C)cc1 | . | . | -11 | 10% | . | -12% | .
Cc1cccc(N(CC(=O)NC2CC2)S(=O)(=O)c2ccc(Cl)cc2)c1 | . | 13% | -11 | 8%[15.4 µM] | 0.8% | 0% | -16
O=C(COc1ccc(-c2ccccc2)cc1)N1CCN(C(=O)c2cccnc2)CC1 | 0.7 | 4% | -8 | 41% | -3.6% | 0% | 5
COc1ccc(C)cc1NC(=O)CC1COc2ccccc2O1 (stereo not given) | -2.8 | 5% | -1 | -8%[15.4 µM] | . | -8% | -7
O=CN1CCN(C(=O)CN2C(=O)c3ccccc3C2=O)CC1 | 0.6 | 17% | -9 | -1%[15.4 µM] | -0.9% | 4% | 0
NC(=O)N/N=C/c1cc(F)cc(F)c1 | 5.7 | 8% | -5 | 9% | . | 2% | 3
Cc1cc(-c2nnc(SCC(=O)N3C(C)CCCC3C)o2)no1 (stereo not given) | 1.7 | 11% | 14 | -38% | 1.3% | 2% | 0
Cc1oc(-c2cc(F)ccc2F)nc1CN1CCCN(C(=O)c2ccco2)CC1 | -1.7 | 14% | -6 | -22% | . | -2% | 0
O=c1oc(-c2ccco2)nc2ccccc12 | -0.1 | -8% | -3 | -19% | -7.2% | -8% | -20
O=C(Nc1cc(Cl)cc2c1-c1ccc(Cl)cc1C2O)C(Cl)Cl (stereo not given) | . | . | 21 | -13% | -6.6% | -17% | .
Cc1ccccc1N1CC(C(=O)Nc2ccc(S(=O)(=O)N3CCOCC3)cc2)CC1=O (stereo not given) | . | 8% | -7 | 12% | . | -1% | 4
CCOC(=O)Cn1nnc(-c2ccc(S(C)(=O)=O)cc2)n1 | 3.1 | 10% | 20 | 5% | 0.7% | -5% | 1
CC(C)COc1ccc(C(=O)Nc2cc(S(=O)(=O)N3CCOCC3)ccc2N2CCCC2)cc1 | . | . | -20 | 21% | 47% | -7% | -6
CCOC(=O)c1cccc(NC(=O)CCn2cccc2)c1 | 3.0 | 16% | -3 | 4% | -2.1% | 0% | 2
CN(CC(CC(=O)O)c1ccccc1)S(=O)(=O)c1ccc(Br)cc1 (stereo not given) | -1.6 | 10% | -7 | -6% | -0.4% | -11% | -11
CCC(=O)Nc1ccc(Oc2ccc3c(c2)C(=O)N(c2ccc(O)cc2)C3=O)cc1 | -0.1 | 1% | -9 | 6% | 0.7% | -11% | -7
CC(=O)c1cc(C#N)c(N2CCOCC2)nc1C | -2.4 | 24% | 3 | ? | . | 3% | 1
C[C@@H]1NC(=O)[C@H](CCCN=C(N)N)NC(=O)c2cc([N+](=O)[O-])cc(I)c2OCC[C@@H](C(N)=O)NC1=O | 3.4 | -3% | . | . | . | . | 11
Cc1cc(N2C(=O)CC(N3CCN(c4ccc(C(=O)c5cccs5)cc4)CC3)C2=O)no1 (stereo not given) | -2.3 | 8% | -2 | 1% | -4.0% | 0% | 4
O=C(NCC(c1cccs1)N1CCOCC1)c1cnc(Cl)c(Cl)c1 (stereo not given) | . | . | 24 | ? | -6.1% | -10% | .
O=C(COc1ccc([N+](=O)[O-])cc1)Nc1cc(S(=O)(=O)N2CCCCC2)ccc1N1CCCCC1 | . | . | -2 | -18% | -1.6% | -14% | 1
O=C(Nc1ccccc1)[C@@H]1[C@@H]2C(=O)N(c3ccc(F)cc3)C(=O)[C@@H]2[C@H]2C=CC=NN21 | -0.4 | 35µM* | -2 | -1%[15.4 µM] | . | 1% | .
CCOC(=O)Cn1nnnc1CN(CCc1ccccc1)Cc1cc2cc(CC)ccc2[nH]c1=O | 2.5 | 4% | 5 | -2% | -7.6% | -16% | 1
Cc1nn(-c2ccccc2)c2[nH]c(=O)c(CNCC3CCCO3)cc12 (stereo not given) | 1.7 | 10% | -6 | 6% | ? | -5% | 3
COCc1cc(C)nc(OCC(=O)N/N=C/c2ccc(-c3cc([N+](=O)[O-])ccc3Cl)o2)c1C#N | -1.3 | 2% | 5 | -5%[15.4 µM] | . | 20% | 5
CN1C(=O)c2cccc3c(S(=O)(=O)Nc4ccccc4F)ccc1c23 | -8.2 | 20% | 6 | 13% | . | -19% | 2
NC(=O)/C(=C\c1ccco1)NC(=O)c1ccc(Br)o1 | . | . | -4 | 9% | . | -2% | .
O=C(N1CCCCC1)N1CCC(c2nc3ccccc3[nH]2)CC1 | 3.4 | -6% | -3 | 4% | -1.8% | 0% | -1
CC(=O)c1cccc(NC(=O)C(C)OC(=O)CCn2c(C)csc2=O)c1 (stereo not given) | . | . | 7 | -3% | -3.6% | 2% | 1
CCN1C(=O)/C(=C\N2CCN(c3cccc(Cl)c3)CC2)SC1=S | 6.9 | -19% | 6 | 19% | 1.3% | 7% | 6
COc1ccc(-c2sc3cc(OC)c(OC)cc3c2C#CCCO)cc1 | . | . | 5 | -25% | 4.4% | -14% | 24
O=c1[nH]c2cc3c(cc2cc1C(c1nnnn1Cc1ccccc1)N1CCCCCC1)OCCO3 (stereo not given) | ? | -22% | -14 | ? | -26% | -2% | -18
Cc1ccc(Cl)cc1N1CCN(C(=O)c2cc3c(=O)[nH]c4ccccc4c3n2C)CC1 | 3.8 | -17% | -5 | -12%[15.4 µM] | 0.7% | ? | 24
COc1ccc(NC(=O)c2cc(-c3ccncc3)nc3ccccc23)c(OC)c1 | . | . | 2 | ? | . | -13% | .
CCOc1cc(NC(=O)c2cccs2)c(OCC)cc1NC(=O)CCC(=O)NCCN1CCOCC1 | 2.0 | 15% | 1 | 2% | . | -8% | 5
O=C(Nc1nncs1)C1(c2ccccc2)CCCC1 | 3.9 | 7% | 0 | -5% | 0.4% | -11% | -9
O=C(Nc1ccccc1Oc1ccccc1)c1ccc(Br)o1 | 3.0 | 1% | 11 | -7% | -4.2% | -3% | -7
CC(C)C[C@H]1CN=C(Nc2ccccc2)N1CC1CCC(C(C)(C)C)CC1 (stereo not given in full) | . | . | -3 | . | 2.4% | 12% | -15
Nc1nc(Cl)cc(Sc2ccc(F)cc2)n1 | -0.1 | 22% | 14 | -5% | 1.9% | 4% | 14
COc1ccc(-c2cc(C(=O)NCC3CCCO3)c3cc(C)ccc3n2)cc1 (stereo not given) | 10 | -3% | 22 | -2% | . | -14% | -5
Cc1ccc(S(=O)(=O)N2CC(O)CC2C(=O)O)cc1 (stereo not given) | -4.4 | 10% | -5 | 36%[15.4 µM] | 35µM* | -9% | ?
Cn1c(-c2ccccc2)cc(=O)cc1-c1ccccc1 | . | . | -17 | 0% | -0.6% | . | .
Cc1ccc(OCCCC(=O)N(C)CC(=O)Nc2ccccc2Cl)cc1 | . | . | 28 | 9% | 1.5% | -7% | -2
Nn1cnnc1SC1CCCCC1NS(=O)(=O)c1ccccc1 (stereo not given) | -9.6 | -28% | -12 | ? | -2.7% | 5% | -6
Cc1sccc1/C=N/NC(=O)c1cccc2ccccc12 | 6.0 | 13% | -5 | -36%[inhibitor] | -8.7% | 9% | 8
Cc1ccc(NC(=S)NNC(=O)c2c([N+](=O)[O-])c(C)nn2C)cc1 | 2.5 | 7% | 5 | ? | 1.1% | -19% | 15
Cc1c(=O)n(OCc2ccc(Cl)cc2)c2ccccc2[n+]1[O-] | 1.0 | 10% | 25 | -3%[15.4 µM] | . | 2% | 10
COc1ccccc1-c1cccc([C@@H]2C[C@H]3[C@H](CON3C)CN2C(=O)C(C)(C)C)c1 | . | . | -8 | . | 0.9% | 7% | .
O=C(COC(=O)C1CCN(S(=O)(=O)c2cc([N+](=O)[O-])ccc2Cl)CC1)Nc1ncc(Cl)cc1Cl | -1.0 | -4% | 5 | 2% | 1.0% | -18% | -3
CCCCn1c(N)c(N(CCC(C)C)C(=O)COC(=O)c2ccc3ccccc3c2)c(=O)[nH]c1=O | . | . | -6 | -15%[15.4 µM] | . | 1% | -3
COc1ccccc1CNC(=O)c1ccccc1NC(=O)C1=C(C)OCCS1 | . | 11% | 10 | 13% | -0.7% | -12% | -13
CCCN1C2=NCCN2c2cc(C)c(C)cc21 | 1.4 | -3% | 43 | -6% | -2.9% | 6% | -3
Brc1ccc(OCc2nnc(SCC3CCCCC3)o2)cc1 | 1.5 | -8% | 13 | 5%[15.4 µM] | 1.7% | -5% | -7
O=C(Nc1cc(=O)c2ccccc2o1)N1CCOCC1 | 0.2 | 9% | -1 | 13% | ? | 13% | 6
Cc1cccc(-n2ncc3c(=O)[nH]c(SCC(=O)N4CC(=O)Nc5ccccc54)nc32)c1 | . | . | 4 | -37%[inhibitor] | 3.6% | 0% | 13
Cc1nc(NCc2ccco2)c2c3c(sc2n1)CCC3 | 5.1 | 3% | 10 | -42%[inhibitor] | -1.6% | -23% | -18
CCOC(=O)C1CCCN(S(=O)(=O)c2ccc(OC)c3ccccc23)C1 (stereo not given) | 1.4 | -7% | 9 | -6% | -3.9% | -3% | 7
O=C(CCl)NCCCCCCCCCNC(=O)CCl | 0.1 | -7% | -17 | 7% | -3.8% | 2% | 0
CCCCn1c(=O)[nH]c(=O)c2c1nc(-c1ccc(-c3ccccc3Br)o1)n2CC | 10 | 14µM* | 5 | 6% | ? | 4% | 8
COc1ccc(CCC(=O)NNC(=O)Nc2cccc(Cl)c2)cc1 | -1.2 | 12% | -1 | 19% | -0.5% | 7% | 9

This is a random part of the collection. About 4.9% of those tested had a hit in this group.
